# Bioassay records from PubChem.
# Mtb growth: Mycobacterium tuberculosis H37Rv growth inhibition, cell based, confirmatory dose response (AID 1949); most inactive calls were filed without a number and no value below 0 was filed; one-dose inhibition, % at 10 µg/mL; IC50 in µg/mL for titrated hits; 1.6% of 100,000 active;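 active = confirmed in a dose series; inconclusive = about 50% or more but not retested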;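 note: bacteria grown 7 days with compound before Alamar blue readout; 0% = untreated bacteria and 100% = reference antibiotic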
# Active calls of the source: *; i = inactive; ? = inconclusive. This is a subset (hit frequency here may not be typical).
SMILES,Mtb growth
Cc1cc([N+](=O)[O-])ccc1NC(=O)C(CC(C)C)N1C(=O)c2ccccc2C1=O (stereo unspecified),i
COc1ccccc1N1CCN(C(=O)CN(Cc2ccccc2)S(=O)(=O)c2ccc(Cl)cc2)CC1,i
Cc1ccc(-n2c(=S)[nH]c3sc4c(c3c2=O)CCCC4)cc1C,i
CCc1ccc(OCC(=O)N(CC)c2ccccc2)cc1,i
CC(=O)c1ccc(Nc2nc(-c3ccncc3)cs2)cc1,44%
Cc1cc(C)c(NC(=O)CN(c2cccc([N+](=O)[O-])c2)S(C)(=O)=O)c(C)c1,i
COC(=O)c1c(NC(=O)c2cccc(Br)c2)sc(C(=O)N(C)C)c1C,i
CC(C)C(=O)Nc1cccc(C(=O)NCCc2ccc(F)cc2)c1,4%
Cc1cc(=O)oc2cc(OCC(=O)NCCCN3CCOCC3)ccc12,i
O=[N+]([O-])c1cc(C(F)(F)F)ccc1Sc1nc2ccccc2[nH]1,i
O=C(c1cn(-c2ccccc2)nc1-c1ccc([N+](=O)[O-])cc1)N1CCCCC1,0%
CC(=O)Nc1ccc(-c2ccc(NC(C)=O)c(Cl)c2)cc1Cl,i
COc1ccc(Cc2nn3c(-c4ccccc4)nnc3s2)cc1,0.63µg/mL*
COc1ccc(C(=O)Nc2ccc(C(C)=O)cc2)cc1Br,i
O=C(Nc1ccc(Cl)c(Cl)c1)c1cccc(-c2cc3ccccc3oc2=O)c1,i
COCCN1C=C(C(=O)OC)C(c2ccc(Cl)s2)C(C(=O)OC)=C1,1%
CCOc1ccccc1OCC(=O)Nc1c(CC)cccc1CC,i
O=C(CN1C(=O)c2ccccc2S1(=O)=O)NCCSC1CCCCC1,i
CC1(C)Cc2c(sc3nc(=O)n(Cc4ccco4)c(N)c23)CO1,1%
OCc1ccc(Sc2nc3ccccc3[nH]2)o1,0%

# Arranged by heavy-atom count (highest first): some entries from above.
SMILES,Mtb growth
O=C(Nc1ccc(Cl)c(Cl)c1)c1cccc(-c2cc3ccccc3oc2=O)c1,i
O=C(CN1C(=O)c2ccccc2S1(=O)=O)NCCSC1CCCCC1,i
CC(=O)c1ccc(Nc2nc(-c3ccncc3)cs2)cc1,44%
OCc1ccc(Sc2nc3ccccc3[nH]2)o1,0%

# Continuation.
SMILES,Mtb growth
O=C(CC(c1ccccc1)c1cc(Br)ccc1O)N1CCNCC1 (stereo unspecified),i
CC(C)NC(=O)c1ccccc1NC(=O)c1ccc(CSc2ccccc2)cc1,i
CN(C)C(=O)c1ccc(-c2nnc(Nc3ccccc3)c3ccccc23)cc1,i
CCn1c(SCC(=O)n2nc(C)cc2C)nnc1-c1ccc2c(c1)OCO2,i
CC1CCCCC1NS(=O)(=O)c1ccc(Cl)cc1 (stereo unspecified),i
Cc1cccc(-c2nc(NCc3ccco3)c3ccccc3n2)c1,47%
O=C(Nc1cc(S(=O)(=O)Nc2ccc(Cl)cc2)ccc1Cl)c1ccccc1,i
COc1ccccc1OCC(=O)Nc1ccccc1[N+](=O)[O-],i
CSc1cccc(NS(=O)(=O)c2ccc(NC(C)=O)cc2)c1,i
Cc1ccc(S(=O)(=O)N2CCN(Cc3ccc(Cl)cc3)CC2)cc1,i
O=C(NCCc1cccc(Cl)c1)c1cc(Cl)ccc1Cl,2%
CC(=O)NCCOc1cc(C)ccc1C(C)C,i
COc1ccc(N2CCN(C(=O)Cc3ccc(Cl)cc3)CC2)cc1,5%
CC(NS(=O)(=O)c1ccc(OCC(=O)Nc2ccccc2Br)cc1)c1ccccc1 (stereo unspecified),i
CS(=O)(=O)N(CC(=O)Nc1cc(Cl)ccc1Cl)c1ccc(Oc2ccccc2)cc1,i
Cc1nn(Cc2c(F)cccc2Cl)c(C)c1NC(=S)Nc1ccc(S(N)(=O)=O)cc1,i
COc1ccc(C(=O)Nc2ccc(Br)c(Cl)c2)cc1OC,0%
C=CCOc1ccc(CNCCCC)cc1OCC,i
Cc1cc(C)nc(SCC(=O)Nc2ccnc3ccccc23)n1,i
O=C(Nc1ccc(-c2cc3ccccc3oc2=O)cc1)c1cc(-n2cnnc2)ccc1Cl,6.9µg/mL*
Cc1cc(C)cc(C(=O)NC(=S)Nc2ccc3c(c2)oc2ccccc23)c1,i
Cc1sc2nc3scc(C)n3c(=O)c2c1C,i
COc1ccccc1C(=O)NCCN1CCN(C(=O)c2ccccc2OC)CC1,14%
CC1CCc2cc(F)ccc2N1C(=O)c1ccc(C(C)(C)C)cc1 (stereo unspecified),i
CCc1nc2ccc(Br)cc2c(=O)n1-c1ccc(F)cc1,i
C=CCN(C(=O)c1ccccc1)c1ccc(OC)cc1,i
C#CC(C)(C)NC(=O)CN(c1ccc(Cl)cc1)S(=O)(=O)c1ccccc1,i
CC(=O)c1cccc(NC(=O)Nc2cccnc2)c1,i
NC(=O)Nc1cccc(C(F)(F)F)c1,i
Cc1cccc(/C(N)=N/OC(=O)CCCc2ccccc2)c1,i
O=C(CCc1ccccc1)Nc1nnc(SCc2ccc(Cl)cc2Cl)s1,i
CCOC(=O)c1ccc(NC(=O)NCc2ccccc2OC)cc1,35%
CSc1ccc(C2Nc3ccccc3NC3=C2C(=O)CC(c2cccs2)C3)cc1 (stereo unspecified),37%
Cc1ccc(Nc2ncnc(N)c2[N+](=O)[O-])cc1,i
CCCCn1c(NCc2ccc(N(C)C)cc2)nc2ccccc21,?
CN(CC(=O)Nc1cccc([N+](=O)[O-])c1)S(=O)(=O)c1cc(Cl)ccc1Cl,i
Cc1c(C=O)c2ccccc2n1CC(C)C,i
O=C(CSc1nnc(COc2cccc3cccnc23)n1-c1ccccc1)N1CCCCC1,i
Cc1cc(C)c(NC(=O)c2ccccc2N(C)S(C)(=O)=O)c(C)c1,i
O=C(C1CC(c2ccccc2Cl)=NO1)N1CCN(c2ccccc2)CC1 (stereo unspecified),i
Cc1c(NC(=O)CSc2ccccc2)cccc1C(=O)O,2%
CCCCn1nnc(NC(=O)c2cc(I)ccc2Cl)n1,i
COc1ccc2c(c1)OCC/C2=N\OC(=O)c1ccccc1I,?
CCOc1ccc(C(=O)Nc2cccc(F)c2)cc1Cl,21%
CC(=O)Nc1ccc(S(=O)(=O)N2CCCCC2C(=O)O)cc1 (stereo unspecified),5%
COc1ccccc1CC(=O)NCC1CCCO1 (stereo unspecified),i
Cc1cc(OC(C)C(=O)Nc2ccc(Br)cc2)ccc1Cl (stereo unspecified),32%
Nc1cc(C(=O)O)ccc1NC1CCCCC1,i
CCOC(=O)C1CCN(CCC(=O)Nc2cccc(OC)c2)CC1,i
CC(Oc1ccc2c(c1)CCC2)C(=O)NNC(=S)NCc1ccc(Cl)cc1 (stereo unspecified),i
O=S(=O)(c1c(Cl)cccc1Cl)N1CCN(c2ccccc2F)CC1,1%
O=c1c2ccccc2ncn1CCOCCOc1ccc(Br)cc1Cl,i
O=C(NC(=S)Nc1ccc2oc(-c3cc(F)c(F)cc3Cl)nc2c1)c1cccc([N+](=O)[O-])c1,i
Cc1cccc(COC(=O)Nc2ccc(NC(=O)c3ccccc3Cl)cc2)c1,i
Cc1cc2oc(C(=O)Nc3nc(-c4ccc(S(=O)(=O)N5CCOCC5)cc4)cs3)c(C)c2cc1C,i
Cc1c(Cl)cccc1NC(=S)NC(=O)c1cc(I)ccc1Cl,i
O=C(Nc1ccc2c3c(cccc13)CC2)c1cccs1,i
O=C(c1cc2ccccc2o1)N1CCCCCC1,9%
Cc1cc(C(C)(C)C)ccc1OCCNCCN,i
Cc1cc(C)c2c(CC(=O)Nc3ccc(Cl)cn3)coc2c1,i

# Later entries
SMILES,Mtb growth
O=c1c2ccccc2nc(Cc2ccccc2)n1-c1c(Cl)cccc1Cl,2%
COc1cc(OC)c(C(=O)NCc2ccc(F)cc2)cc1OC,1%
O=C1C(=O)N(Cc2ccc(OCc3ccccc3)cc2)c2ccccc21,3%
COc1cc(OC)cc(-c2nc3ccccc3s2)c1,i
CC(=O)Nc1cccc(OCC(=O)Nc2c(C)cc(Br)cc2C)c1,i
COc1ccc(C(=O)N2CCN(c3ccc([N+](=O)[O-])cc3C(F)(F)F)CC2)cc1,i
Cc1ccc(NC2=NC(C(=O)Nc3ccc(C)c(C)c3)CC(=O)N2)cc1 (stereo unspecified),i
S=C(c1cccc(Oc2ccccc2)c1)N1CCCC1,0%
COc1cc(NC(=O)Nc2ccc(Cl)c(Cl)c2)cc(OC)c1OC,i
CSc1ccccc1C(=O)NCc1ccc(C)cc1,1%
CCN1CCN(CCCOc2ccc(C(C)(C)C)cc2C)CC1,i
CCOC(=O)c1ccc(NC(=S)Nc2ccc(OC(F)F)c(Cl)c2)cc1,6%
CC(NC(=O)c1cccnc1)C1CCCO1 (stereo unspecified),i
CCn1cc(CNC(=S)Nc2cccc(Cl)c2C)cn1,1%
Cc1cc(C)c(NC(=S)NC(=O)c2ccc(-c3ccccc3)cc2)c(C)c1,5%
COC(=O)C1=C(C)n2nnnc2NC1c1ccc(Cl)cc1 (stereo unspecified),1%
CCCc1cc(=O)oc2c(C)c(OCc3ccc(F)cc3F)ccc12,0%
COc1cccc(CN2CCN(C(=S)NCc3ccco3)CC2)c1,i
O=C(COc1ccc(S(=O)(=O)Nc2ccc(Cl)cc2)cc1)NCc1ccco1,2%
Cc1c(Cl)cccc1NC(=S)Nc1ccccc1F,i
COc1ccc(C2CC(=O)C3=C(C2)Nc2ccccc2NC3c2ccc(OC(C)=O)c(OC)c2)cc1 (stereo unspecified),i
O=C(CN1C(=O)c2ccccc2S1(=O)=O)Nc1ccccc1C(=O)NCCc1ccccc1,3%
CCCC1=NC(C)(C)Cc2cc(OC)c(OC)cc21,1%
CCCOc1ccc(S(=O)(=O)N2CCC(Cc3ccccc3)CC2)cc1,13%
Cc1ccc(NC(=O)c2ccccc2N(C)S(C)(=O)=O)cc1Cl,i
O=C1CC(c2cccc(Cl)c2)c2cc3c(cc2N1)OCO3 (stereo unspecified),4%
O=C(CCc1ccccc1)CN1CCN(c2ccc([N+](=O)[O-])cc2)CC1,i
O=C(N1CCOCC1)N1CCc2ccccc21,i
O=C(COc1ccccc1F)Nc1cccc(C(F)(F)F)c1,?
C=CCOc1ccc(C(=O)N(Cc2ccccc2)Cc2ccccc2)cc1,2%
COC(=O)c1sc2cc(NC(=S)N3CCN(C(=O)c4ccco4)CC3)ccc2c1Cl,i
COc1cc(OC)cc(N2C(=O)CC(N3CCN(c4ccc([N+](=O)[O-])cc4)CC3)C2=O)c1 (stereo unspecified),i
C=CCNc1nc(-c2sc(NC(=O)CC)nc2C)cs1,i
O=C(CCCOc1ccc(Cl)cc1Cl)N1CCc2ccccc21,i
Cc1ccccc1-c1nnc(SCC(=O)Nc2ccc(F)c(Cl)c2)n1C,5%
Cc1ccnc(SC2CC(=O)N(c3ccc(C)c(C)c3)C2=O)n1 (stereo unspecified),2%
Cc1ccc(S(N)(=O)=O)cc1NC(=O)Nc1ccc(Cl)c(Cl)c1,i
COc1ccc(-n2c(SCc3ccccc3)nnc2-c2ccncc2)cc1,i
CCOC(=O)c1ccc(NCc2cc(Br)c(OCC(=O)NC(C)(C)C)c(OC)c2)cc1,1%
O=C(CCc1ccccc1)NC(=S)Nc1ccc(S(=O)(=O)N2CCN(c3ccccc3)CC2)cc1,i
Cn1c(CC2C(=O)Nc3ccc(Br)cc32)nc2ccccc2c1=O (stereo unspecified),i
CCc1ccc(C(=O)Nc2ccncc2)cc1,i
CCOC(=O)CSc1nc(C)cc(C)n1,i
O=C(NC1CC2CCC1C2)c1ccc(CN2CCN(c3ccccc3)CC2)cc1 (stereo unspecified),i
Cc1ccc(C(=O)O)cc1NC(=S)NC(=O)c1ccccc1F,3%
O=C1CC(c2cccs2)CC2=C1C(c1cccc([N+](=O)[O-])c1)Nc1ccccc1N2 (stereo unspecified),14%
NC(=O)CSc1nc2ccccc2c(=O)[nH]1,i
O=C(COc1ccccc1-c1ccccc1)c1ccc(F)cc1,8%
O=S(=O)(c1ccc(N(C(F)F)S(=O)(=O)c2ccc(Cl)cc2)cc1)N1CCOCC1,i
COc1cccc(CNC(C)(C)CO)c1OCc1ccc(Cl)cc1,i
O=C(Cc1ccccc1)N1CCCC1c1ccccc1 (stereo unspecified),i
COc1ccc(CCNC(=O)Nc2ccccc2)cc1,i
Cc1ccc(C(=O)Nc2ccc(N3CCN(C)CC3)cc2)cc1C,2%
Cc1ccc(-c2csc3ncn(C(C)C(=O)OCc4ccccc4Cl)c(=O)c23)cc1 (stereo unspecified),0.74µg/mL*
Cc1ccc(-n2c(C)nnc2SCC(=O)Nc2cccc(C)c2C)cc1,i
Oc1ccc(CN2CCCC2)c2cccnc12,?
CC(C)C(=O)NC(=S)Nc1ccccn1,i
COc1ccc(-c2csc(NC(=O)COc3ccc(C)cc3)n2)cc1Br,i
COc1cccc(OC)c1C(=O)Nc1ccc2oc(-c3ccncc3)nc2c1,i
Cc1ccc(C(=O)Nc2ccc(NC(=O)c3ccccc3)c(C)c2)c(C)c1,2%

# Among those listed so far, ten have a thiophene ring, fused or not.
SMILES,Mtb growth
Cc1ccc(-n2c(=S)[nH]c3sc4c(c3c2=O)CCCC4)cc1C,i
COC(=O)c1c(NC(=O)c2cccc(Br)c2)sc(C(=O)N(C)C)c1C,i
COCCN1C=C(C(=O)OC)C(c2ccc(Cl)s2)C(C(=O)OC)=C1,1%
CC1(C)Cc2c(sc3nc(=O)n(Cc4ccco4)c(N)c23)CO1,1%
Cc1sc2nc3scc(C)n3c(=O)c2c1C,i
CSc1ccc(C2Nc3ccccc3NC3=C2C(=O)CC(c2cccs2)C3)cc1 (stereo unspecified),37%
O=C(Nc1ccc2c3c(cccc13)CC2)c1cccs1,i
COC(=O)c1sc2cc(NC(=S)N3CCN(C(=O)c4ccco4)CC3)ccc2c1Cl,i
O=C1CC(c2cccs2)CC2=C1C(c1cccc([N+](=O)[O-])c1)Nc1ccccc1N2 (stereo unspecified),14%
Cc1ccc(-c2csc3ncn(C(C)C(=O)OCc4ccccc4Cl)c(=O)c23)cc1 (stereo unspecified),0.74µg/mL*

# Later entries:
SMILES,Mtb growth
CCn1c(Cc2c(C)[nH]c3ccccc23)nnc1SCC(=O)NCc1ccco1,i
CN(C)S(=O)(=O)c1ccc(Cl)c(C(=O)Nc2cccc([N+](=O)[O-])c2)c1,i
Cc1[nH]c2ccc(Br)cc2c(=O)c1CN(C)C1CCCCC1,i
Oc1ccc(Nc2nc(NCc3ccco3)c3ccccc3n2)cc1,i
CCN(CC)CCOc1ccc(C)cc1C,5%
Cc1ccccc1NC(=O)c1ccccc1NC(=O)c1ccco1,i
